Marburg entry inh = qHTS for inhibitors of binding or entry into cells for Marburg Virus. Marburg virus pseudotyped entry inhibition, cell reporter; control for the full effect not named in the record; about a third of the inactives were read at about 46 µM. Potency, µM (doses to about 37.8 µM), without a hit: at the highest dose activity change, negative = inhibition, most hits filed as inhibitors. 300,000 compounds, 1.8% hits. AID 540276, 2011; active = well fitted inhibition curve with a large enough effect; inconclusive = small, poorly fitted or top-dose-only effect, or effect the other way; inactive = flat fitted curve, though single readings scatter; tested in HEK293 cells; about a fifth of its hits are not listed in these tables; further: on the % scale 0 is the no-effect control and ±100 the full control effect; luciferase read-out
StopGo reporter = High Throughput Screening for Foot and Mouth Disease Virus Antivirals; human cells with a luciferase reporter of 2A StopGo recoding; control for the full effect not named in the record; Potency, µM (doses to about 57.9 µM), without a hit: top-dose signal change, negative = less light; 410,000 compounds, 1.2% hits; AID 1159524, 2015; active = well fitted falling curve with a large enough effect; inconclusive = small, poorly fitted or top-dose-only effect; inactive = no such curve, though single readings can be large or run the other way; tested in HEK293T cells; further: on the % scale 0 is the no-effect control and ±100 the full control effect; nearly all actives have a fitted effect of over 45% in size; luciferase light after 4 h
LASV entry inh = qHTS for Inhibitors of binding or entry into cells for Lassa Virus | Lassa virus pseudotype entry inhibition, cell reporter; control for the full effect not named in the record | Potency, µM (titrated, usually from 37.9 µM), for the others: at the highest dose activity change, negative = inhibition, most hits filed as inhibitors | 300,000 compounds, 1.2% hits; active means well fitted inhibition curve with a large enough effect; inconclusive means small, poorly fitted or top-dose-only effect, or effect the other way; inactive means flat fitted curve, though single readings scatter; tested in HEK293 cells; further: on the % scale 0 is the no-effect control and ±100 the full control effect; nearly all actives have a fitted effect of over 50% in size; luciferase read-out
Cruzain inh noDet = qHTS Assay for Promiscuous and Specific Inhibitors of Cruzain (without detergent). purified cruzain, Z-FR-AMC fluorescence, no detergent. Potency, µM, for the others: max response, negative = inhibition, hits mostly inhibitors. 200,000 compounds, 2.3% hits. Cruzipain (Trypanosoma cruzi), P25779;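 further: plate controls were enzyme without inhibitor for no effect and buffer without enzyme for full effect; nearly all actives have a fitted effect of over 40% in size; top concentration of the series not given in the record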
Target sequence (P25779 123-467 limits assumed): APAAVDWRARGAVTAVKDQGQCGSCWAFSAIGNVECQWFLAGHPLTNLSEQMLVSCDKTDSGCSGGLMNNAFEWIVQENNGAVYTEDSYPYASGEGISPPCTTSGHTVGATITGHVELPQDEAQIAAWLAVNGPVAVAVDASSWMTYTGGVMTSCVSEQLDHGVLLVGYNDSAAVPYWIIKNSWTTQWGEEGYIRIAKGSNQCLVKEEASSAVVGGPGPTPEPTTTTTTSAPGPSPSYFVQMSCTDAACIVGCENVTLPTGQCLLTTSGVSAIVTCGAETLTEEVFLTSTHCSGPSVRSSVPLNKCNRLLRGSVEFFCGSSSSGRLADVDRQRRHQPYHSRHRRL
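Purified cruzain at 1.5 nM, pre-incubated 15 min with compound at room temperature in 100 mM sodium acetate pH 5.5, 5 mM DTT, 0.00005% Triton X-100. Reaction started with 2 uM Z-FR-AMC; AMC fluorescence increase over 60 s gives rate.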
Cruzain Triton = qHTS Assay for Promiscuous and Specific Inhibitors of Cruzain (with detergent); Potency, µM, without a hit: max response, negative = inhibition, actives largely listed as inhibitors; purified cruzain, Z-FR-AMC fluorescence, 0.01% Triton; 200,000 compounds, 0.43% hits; Cruzipain (Trypanosoma cruzi), P25779;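 further: plate controls were neutral wells for no effect and buffer without enzyme for full effect; nearly all actives have a fitted effect of over 40% in size; top concentration of the series not given in the record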
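Detergent-containing arm of a paired screen for aggregation-based inhibition: 0.01% Triton X-100 present. Cruzain at 1.5 nM cleaved 2 uM Z-FR-AMC at pH 5.5 with 5 mM DTT; AMC fluorescence gain over 60 s measured activity.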
RE007 growth inh = qHTS Assay for Inhibitors of the HIV-1 protein Vpr. S. pombe RE007 Vpr strain, BacTiter-Glo ATP luminescence, 24 h; control for the full effect not named in the record. Potency, µM (top dose mostly 92.2 µM), for the others: top-dose activity change, negative = less growth. 360,000 compounds, 0.21% hits. AID 651644, 2012; active = well fitted falling curve with a large enough effect; inconclusive = small, poorly fitted or top-dose-only effect; inactive = no such curve, though single readings can be large or run the other way;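 further: on the % scale 0 is the no-effect control and ±100 the full control effect; nearly all actives have a fitted effect of over 50% in size; the assay follows cell death caused by Vpr and the record does not say whether a fall means rescue or toxicity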
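Fission yeast strain RE007, carrying one chromosomally integrated HIV-1 vpr copy, was seeded at OD 0.01 in PMG+AL medium with 23 nL pinned compound. After 24 h at 30 °C and 99% humidity, viability was read by BacTiter-Glo luminescence.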
NS1 function inh = qHTS Assay for Inhibitors of Influenza NS1 Protein Function; S. cerevisiae slowed by influenza A NS1, growth recovery by OD600; Potency, µM (top dose mostly 46.1 µM), inactives show at the top dose activity, positive = more growth; 270,000 compounds, 0.4% hits; AID 2326, 2010; active means well fitted rising curve with a large enough effect; inconclusive means small, poorly fitted or top-dose-only effect; inactive means no such curve, though single readings can be large or run the other way; further: nearly all actives have a fitted effect of over 50% in size
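Compounds were scored for reversing the slow growth caused by influenza A NS1 in S. cerevisiae, measured by optical density at 600 nm. Assay medium contained 2% galactose at pH 6.0; NS1-free yeast of the same strain were the positive control.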
SARS PLpro yeast = qHTS of Yeast-based Assay for SARS-CoV PLP. S. cerevisiae expressing SARS-CoV PLpro, growth rescue; control for the full effect not named in the record. Potency, µM (doses to about 32.9 µM), for the others: top-dose activity, positive = growth rescue. 330,000 compounds, 0.19% hits. AID 485353, 2010; active means well fitted rising curve with a large enough effect; inconclusive means small, poorly fitted or top-dose-only effect; inactive means no such curve, though single readings can be large or run the other way; further: 0% is about no effect; nearly all actives have a fitted effect of over 55% in size; growth read by luminescence after 48 h
The depositor's hits bear a star; ? = inconclusive; nt = no result given; & = joins results of further samples; [ ] = remark or other dose. Unless noted, the call rests on the fitted dose curve; in most records, active means well fitted curve in the direction sought with a large enough effect; inconclusive means small, poorly fitted or top-dose-only effect, or another doubt; inactive means no such curve, though single readings can be large; an effect the other way counts as inactive or inconclusive. Potency means the concentration at half of the fitted maximal effect. This is a random part of the collection, and some 4.8% of all compounds hit somewhere here.

Every second line gives: Marburg entry inh, StopGo reporter, LASV entry inh, Cruzain inh noDet, Cruzain Triton, RE007 growth inh, NS1 function inh, SARS PLpro yeast
CCCSc1nnc(N2C(=O)CC(c3ccsc3)C3=C2CCCC3=O)s1 (stereo not given)
 : nt, -19%, nt, 11%, 1.0%, 0%, -53%, -2%
COc1cc(OC)cc(C(=O)c2c(C)c(C#N)c3ccccn23)c1
 : nt, ?, nt, nt, nt, -9%, -2%, 0%
Nc1ccc2[nH]ncc2c1
 : 15%&15%&15%, -17%, -6%, -9%, -3.6%, -21%[18.4 µM], ?, 7%
Cc1ccc(S(=O)(=O)N2CCN(C(C(=O)Nc3ccc(F)cc3)c3ccccc3)CC2)cc1 (stereo not given)
 : ?, 0%, 6.3µM*, -20%, -4.1%, -4%, ?, 24%
Cc1ccn2c(=O)nc(SCC(=O)c3ccccc3)nc2c1
 : 10%, 15%, ?, nt, nt, -3%, nt, -4%
Cc1cccc(C(=O)OC(C)CN2C(C)CCCC2C)c1 (stereo not given)
 : ?, -5%, 7%[46.1 µM], nt, nt, -7%, 3%, 1%
CCCCc1ccc(NC(=S)N2CCN(C)CC2)cc1
 : nt, 36%[activator], nt, nt, nt, -10%, -1%, 1%
O=C(CCSc1nnc(-c2ccco2)o1)Nc1ccc(F)cc1
 : -2%[46.1 µM], -17%, 3%, nt, nt, 11%, nt, -3%
CCn1ncc(C2=NOC(C(=O)NCc3ccccc3)C2)c1C (stereo not given)
 : ?, -25%, -22%, -3%, 4.2%, 2%, 11%, 0%
C=CCSc1cc(C)nc2c(-c3ccccc3)cnn12
 : nt, 64%[activator], nt, nt, nt, -22%, -9%, -2%
COc1ccc(OC)c(C2C(C#N)=C(N)Oc3c2c(C)nn3-c2ccc(C)cc2)c1 (stereo not given)
 : -14%&0%, ?, 0%, 1%, -9.7%, -27%, -16%, -2%
O=C(NCc1ccc(Cl)cc1)c1ccc2c(c1)NC(=O)C(CS(=O)(=O)Cc1ccccc1Cl)N2 (stereo not given)
 : nt, -28%, -6%[46.1 µM], 25µM*, -2.8%, nt, nt, nt
CCOc1ccc(S(=O)(=O)N(C)CC(=O)NCCN2CCOCC2)cc1
 : -1%[46.1 µM], -7%, 0%[46.1 µM], nt, nt, -1%, -2%, 0%
O=S(=O)(c1cccs1)N1CCN(c2ncccn2)CC1
 : -3%, -28%, -20%, -8%, -0.7%, -1%, -9%, ?
Cc1ccc(-n2c(C)cc(C(=O)CSc3nnnn3C)c2C)cc1
 : ?, -5%, ?, 0%, -3.4%, -4%, -47%, -14%
CNc1oc(-c2ccccc2)nc1S(=O)(=O)c1ccc(C)cc1
 : -2%[46.1 µM], 4%, 1%[46.1 µM], nt, nt, 0%, 5%, -5%
CC(NC(=O)CSc1nnc(-c2cccc(S(=O)(=O)N3CCCCC3)c2)o1)C12CC3CC(CC(C3)C1)C2 (stereo not given)
 : ?, ?, ?, -16%, 0.8%, 0%, 19%, 9%
CCN(CC)CCNC(=O)c1cc(Br)c(N)cc1OC
 : nt, -19%&-5%, nt, 0%&-1%, -0.5%&-4.3%, -27%[18.4 µM], nt, nt
O=C(Nc1ccc(S(=O)(=O)Nc2ncccn2)cc1)C1CC(=O)N(c2ccccc2)C1 (stereo not given)
 : 2%, -21%, -1%, nt, nt, -8%, nt, -17%
COc1ccc(/C=C/C(=O)c2ccccn2)cc1
 : -8%[46.1 µM], 5%, -5%[46.1 µM], nt, nt, ?, nt, 2%

The list goes on; it opens with the two that closed the last part.
Every second line gives: Marburg entry inh, StopGo reporter, LASV entry inh, Cruzain inh noDet, Cruzain Triton, RE007 growth inh, NS1 function inh, SARS PLpro yeast
O=C(Nc1ccc(S(=O)(=O)Nc2ncccn2)cc1)C1CC(=O)N(c2ccccc2)C1 (stereo not given)
 : 2%, -21%, -1%, nt, nt, -8%, nt, -17%
COc1ccc(/C=C/C(=O)c2ccccn2)cc1
 : -8%[46.1 µM], 5%, -5%[46.1 µM], nt, nt, ?, nt, 2%
CCCCC(=O)c1c(O)c2ccccc2oc1=O
 : 0%, 11%, 4%, 2%, 1.5%, ?, -82%, -32%
Cc1ccccc1OCC(=O)NC(=S)Nc1ccc2c3c(cccc13)CC2
 : 0%, 0%, -2%, 7.9µM*, -1.0%, -10%, 6%, 3%
CN(C)CCCNS(=O)(=O)c1ccc(Cl)s1
 : ?, -15%, 2%, nt, nt, 3%, 1%, -1%
O=C(CCNC(=O)c1ccc(Cl)cc1)Nc1ccccc1Cl
 : nt, -10%, nt, nt, nt, -1%, -1%, 0%
CC(C)(C)SC(C(=O)N1CCOCC1)c1ccc(Br)cc1 (stereo not given)
 : 12%[46.1 µM], -6%, -14%, nt, nt, 10%, -15%, -2%
O=c1c(-c2ccc3c(c2)OCCO3)coc2c(CN3CCOCC3)c(O)ccc12
 : 10%, 23%, 6%, 4%, -1.9%, -4%, -3%, 2%
COc1ccc(NC(=O)CCCc2nc3ccccc3c(=O)[nH]2)cc1Cl
 : 17%[46.1 µM], 14%, 0%[46.1 µM], nt, nt, -12%, nt, 3%
CC1CCCCC1NC(=O)CCn1ccc2cc(S(=O)(=O)N3CCCC3)ccc21 (stereo not given)
 : ?, -18%, 2%[46.1 µM], nt, nt, -6%, 11%, -1%
Cn1c(SCC(=O)NC2CCCC2)nc2cccnc21
 : 2%, 10%, 1%, -6%, -1.6%, -4%, -5%, -3%
Cc1ccc2[nH]c(=O)c(C(c3nnnn3CC3CCCO3)N3CCCc4ccccc43)cc2c1 (stereo not given)
 : ?, -7%, 0%, ?, -6.1%, -12%, ?, 0%
CCc1ccc(-n2nc(C)c3c(C)cc(=O)n(CC(=O)Nc4ccccc4C(=O)OC)c32)cc1
 : nt, -12%, 8%[46.1 µM], -3%, 0.1%, nt, nt, nt
COC(=O)c1ccc(CO/N=C/c2ccc(OC)cc2)o1
 : 18%[46.1 µM], 16%, nt, nt, nt, 1%, nt, -14%
O=C(COC(=O)c1ccc(Br)o1)Nc1cccc(S(=O)(=O)N2CCCCC2)c1
 : 6%[46.1 µM], 7%, -12%[46.1 µM], nt, nt, 8%, nt, 1%
CC(C(=O)NCCc1ccc(Cl)cc1)n1c(=O)c2cccn2c2cccnc21 (stereo not given)
 : nt, -27%, nt, nt, nt, -3%, ?, -29%
NS(=O)(=O)c1cc(C(=O)OCC(=O)Nc2ccccc2[N+](=O)[O-])ccc1Cl
 : -4%, -9%, -11%, nt, nt, 1%, -2%, 2%
Cc1ccc(C(=O)O)cc1-n1c(C)cc(C=O)c1C
 : -8%[46.1 µM], 1%, 11%[46.1 µM], nt, nt, -10%, 4%, 0%
CCCc1[nH]c2ccc(C(=O)OC)cc2c1CCC
 : nt, 1%, nt, nt, nt, -1%, -13%, -15%
CCC(c1nnnn1C(C)(C)CC)N(CCN1CCOCC1)Cc1cc2cc(C)ccc2[nH]c1=O (stereo not given)
 : -5%, 10%, -1%, -5%, 0.6%, -1%, -1%, 4%
Cc1nn(-c2ccccc2)c(Cl)c1/C=N/NS(=O)(=O)c1ccc(Br)cc1
 : ?, 57%[activator], -17%, ?, -8.2%, 0%, 19%, -44%
CS(=O)(=O)N(CC(=O)NCc1ccccn1)c1ccc2c(c1)OCCO2
 : 12%, -5%, 10%, -3%, 4.0%, 4%, -2%, 3%
COc1ccc(OCc2nc3c4c(-c5ccccc5)c(-c5ccccc5)oc4ncn3n2)cc1
 : 13%[46.1 µM], -17%, 10%[46.1 µM], -3%, -3.4%, nt, nt, nt
Cc1ccc(CNC(=O)COC(=O)c2c(C)noc2C)cc1
 : ?, 1%, -15%, -2%, 4.8%, -4%, 0%, -3%
COCC(=O)N1CCC(Oc2ccc(C(=O)NCCCn3cccn3)cc2)CC1
 : -18%[46.1 µM], 20%, 15%[46.1 µM], nt, nt, 6%, -6%, -1%
Cc1ccc2c(C)nc(/N=C(\N)NC(=O)N3c4ccccc4Sc4ccccc43)nc2c1
 : ?, -28%&0%, 9%&-1%, ?, -6.1%, -3%&-5%, ?, -23%
O=C(Nc1ccccc1C(=O)OCn1nnc2ccccc2c1=O)c1ccco1
 : -1%, 6%, 13%, -7%, -1.2%, -26%, -11%, 5%
CCC(C)c1ccc(O)c(/C=N/O)c1 (stereo not given)
 : ?, 0%, ?, 4%, -3.3%, ?, -4%, -22%
CCOC(=O)N1CCN(C2=NC3(CCCCC3)C(C#N)C(=O)N2)CC1 (stereo not given)
 : 1%, 4%, 6%, 6%, 3.9%, -18%, 3%, ?
CCNC(=S)N1CCn2cccc2C1c1cccnc1 (stereo not given)
 : 21%[46.1 µM], 3%, 3%, nt, nt, 18%, nt, 0%
O=C(O)c1ccccc1C(=O)c1cccc2c(F)cccc12
 : 10%, -14%, 14%, nt, nt, -9%, nt, nt
O=C(Nc1ccc(OC(F)(F)F)cc1)c1n[nH]c(Cn2cncn2)n1
 : 15%, 2%, 0%, 3%, 0.4%, 5%[3.69 µM], 18%, 1%
CC(C)(C)c1cc(C(=O)NNc2cccc(Cl)c2)n(Cc2ccccc2)n1
 : 11µM*, 33%[activator], ?, nt, nt, 139%, -56%, -5%
Cc1ccc(-n2nnnc2SCC(=O)NCCC2=CCCCC2)c(C)c1
 : -22%, 0%, -18%, -6%, -4.0%, -16%, -38%, 0%
CCCN(CCC)CCCNC(=O)c1cn(C)c2ccc(S(=O)(=O)N3CCOCC3)cc2c1=O
 : ?, -3%, 20%[46.1 µM], -1%, -0.6%, nt, nt, nt
Cc1c(C#N)c2ncn(CC#N)c(=O)c2n1-c1ccccc1
 : 14%, -6%, -16%, -9%, -0.9%, 2%, 2%, 7%
Clc1ccccc1OCCN1CCCCC1
 : -15%, nt, 3%, -4%, 4.8%, 3%, 1%, 3%
